# nsP2pro primary: blocks chikungunya virus nsP2 protease peptide cleavage; Q8JUX6; FRET peptide cleavage, nsP2pro, fluorescence 1 h; Potency, µM (doses to about 24.9 µM), without a hit: at the top dose activity change, negative = inhibition, usual class: inhibitors; 1.1% of 31,000 active; AID 1964107; active means well fitted inhibition curve with a large enough effect; inconclusive means small, poorly fitted or top-dose-only effect; inactive means no such curve, though single readings can be large or run the other way; note: nearly all actives have a fitted effect of over 60% in size; a reference inhibitor and vehicle were the controls
# * hit, by the source's call; i = inactive; ? = inconclusive; & = joins results of further samples; [ ] = another dose, or the depositor's remark. % is set by controls: 0 for no effect and ±100 for the full control effect; potency is the fitted concentration of half-maximal effect. Some of the compounds tested. The share of hits here may be higher or lower than overall.
SMILES,nsP2pro primary
CC(=O)N1CCCC1c1nnc2n1CCNC2 (configuration not stated),?
COc1ccccc1NC(=O)c1cc2c(C)nn(-c3ccccc3)c2s1,-9%
COc1ccc(C(=O)N2C[C@@H]3C[C@H](C2)c2c(NC(=O)CSC)ccc(=O)n2C3)cc1,-20%[39.2 µM]
CCc1ccc(Cc2ccc3c(c2)[C@]2(OC3)O[C@H](CO)[C@@H](O)[C@H](O)[C@H]2O)cc1,14%
O=C(COC(=O)CNC(=O)C1CCCCC1)Nc1cc(C(F)(F)F)ccc1Cl,0%
O=C(Nc1cccc2cccnc12)c1ccc(N2C(=O)[C@@H]3C4C=CC(C4)[C@@H]3C2=O)cc1,-1%
CC(C)OC(=O)[C@H](C)N[P@@](=O)(OC[C@H]1O[C@@H](n2ccc(=O)[nH]c2=O)[C@](C)(F)[C@@H]1O)Oc1ccccc1,-7%
Clc1ccc(-c2nc3c4cnn(-c5ccccc5Br)c4ncn3n2)c(Cl)c1,-15%
C/C1=C\CC(C)(C)/C=C/C/C(C(=O)O)=C/CC1,10%
Cc1nc(C(C)Nc2ncnc3ccc(-c4ccc5c(c4)OCO5)cc23)cs1 (configuration not stated),i
CN(c1cc(=O)c2ccnc(-c3ccc(F)c(Cl)c3)c2o1)C1CCOCC1,3%[39.2 µM]
CCOc1ccc(Cl)cc1CN(C)C(=O)C1CC(=O)N(CC)C1 (configuration not stated),i
C=C1CCC2[C@](C)(CO)CCC[C@@]2(C)[C@@H]1CCC1=CCOC1=O (some centres not stated),?
CNc1nc(C(=O)N2CCc3nc(-c4ccccc4)[nH]c3C2)cs1,2%
Cc1ccc(-n2nnnc2CNC(=O)c2cc(C(F)(F)F)cc(C(F)(F)F)c2)cc1C,-25%
CCOc1ccccc1NC(=O)c1c(C)cc(C)nc1SCC(=O)c1cccc(OC)c1,-19%
COc1ccc(C2Nc3ccccc3C(=O)N2Cc2ccccc2)cc1COc1c(C)cccc1C (configuration not stated),i
Cc1cc(C)c2c(=O)c3c(oc2c1)C(=O)N(Cc1ccc(F)cc1)C3c1cccc(O)c1 (configuration not stated),-16%
O=C(c1ccccn1)N1CCC(N2CCCC2=O)CC1,3%[39.2 µM]
CCOP(=O)(OCC)C(C)NC(=O)N(CCCl)N=O (configuration not stated),-3%
Cc1nc(-c2c3n(c(=O)n(Cc4ccccc4C(F)(F)F)c2=O)CCCCC3)no1,i
CC(=O)O[C@@H]1C[C@H](O)[C@@]23CO[C@H](O)[C@]1(C)C2C[C@@H](O)[C@]1(C)C3C(=O)[C@H](OC(C)=O)[C@@]2(C)[C@H](c3ccoc3)C[C@H]3O[C@]321 (some centres not stated),-2%[10 µM]
COc1ccc(C2Nc3ccccc3C(=O)N2Cc2ccco2)cc1COc1ccc(N)cc1 (configuration not stated),?
Cc1cc2c(s1)c1cnn(Cc3cc(C(F)(F)F)cc(Cl)c3F)c(=O)c1n2C,-2%
CC(=O)N1CCCC1c1nc2ccccc2n1Cc1c(F)cccc1Cl (configuration not stated),-12%
Cc1cccc(NC(=O)C(=O)NCCCN2CCOCC2)c1,-17%
COc1cccc(Cn2ncc3c4sc(SC)cc4n(C)c3c2=O)c1,-5%
CN(Cc1nccs1)C(=O)CC(c1ccccc1)c1cccc(Cl)c1 (configuration not stated),i
NS(=O)(=O)c1cc2c(cc1Cl)NCNS2(=O)=O,?
CC(C)(O)CC(CO)NC(=O)CC(O)CC(=O)Cc1ccccc1 (configuration not stated),-11%
CCN(C(=O)Cn1c(SCC(=O)Nc2ccc(OC)cc2)nc2ccccc21)c1cccc(C)c1,-20%
CN1CCN(C(=O)CC[C@@H]2CNC(=O)[C@@H]3C[C@H](NC(=O)c4cccc(F)c4)CN23)CC1,?
Cc1cc(C(=O)N2CC(Cn3c(C)cnc3-c3ccncc3)C2)nn1C,-4%
CC(=O)OC1C(OC(=O)c2ccccc2)C2C(C)(C)CC(=O)CC2(C)C23CCC(C)(C2)C(O)CC13 (configuration not stated),41%[activator][10 µM]
COc1ccc(C(=O)N2CCC(O)(CO)CC2)c(OC)c1OC,0%
O=C(Nc1c(Cl)cncc1Cl)c1ccc(OC(F)F)c(OCC2CC2)c1,?
Cc1ccc(N2CCC(CNc3nc(-c4ccccc4C(C)C)ncc3C)CC2)cn1,i
COc1cccc(C(=O)Nc2nc(-c3nnn(-c4cccc(Cl)c4C)c3C)ns2)c1,13%
COc1ccccc1C(=O)Nc1cccc(C(=O)OCc2cc(=O)n3nc(C4CC4)sc3n2)c1,-7%
O=C(CCc1ccccc1)N1CCNc2cnc(Nc3cccnc3)nc2C1,-6%[39.2 µM]
Clc1ccccc1CNCC1CCC(CNCc2ccccc2Cl)CC1 (configuration not stated),14%
COc1ccc(CCC(=O)NC2CC(=O)N(c3ccc(C)c(C)c3)C2)cc1 (configuration not stated),-14%
CC(C)(C)C1CCc2onc(C(=O)Nc3sc4c(c3C(N)=O)CCCC4)c2C1 (configuration not stated),-23%
O=C(O)C1=NOC2CN(Cc3ccccc3)CC12 (configuration not stated),?
O=C(CC(c1ccccc1)c1ccccc1Cl)N1CCOCC1 (configuration not stated),0%
CN1CCCN(C(=O)CN2CC3CC(C2)[C@H]2CCCC(=O)N2C3)CC1 (some centres not stated),-11%
CC1=C2C3OC(=O)C(C)C3(O)CCC2(C)CCC1O (configuration not stated),?
CCCCN(Cc1ccc(C(=O)NO)cc1)C(=O)Nc1ccccc1,-25%&-10%
O=C(NCC(F)F)c1cc(-c2cccs2)c2cccn2n1,?
CC(Cc1ccccc1)NCCCCl (configuration not stated),4%
# Other structures.
SMILES,nsP2pro primary
Cc1ccc(C(C)c2ccc(=O)n(CC(=O)NCCc3ccccc3)n2)cc1 (configuration not stated),-7%
CCCCNc1oc(-c2ccc(COc3ccccc3C)o2)nc1C#N,-29%
CCOC(=O)c1ccc(NC(=O)C(CC)Sc2nnc3c4ccccc4n(C)c3n2)cc1 (configuration not stated),-16%
Clc1cccc(-c2csc(-c3nc(-c4ccc(Br)s4)cs3)n2)c1,-18%
Cc1cccc(CNC(=O)CN2C(=O)CCCc3ccccc32)c1,-16%
CNC(=O)[C@@H]1CN(C(=O)c2conc2C)C[C@H]1COC,-4%
CCc1nnc(NC(=O)c2nc(SCc3cccc(C)c3)ncc2Cl)s1,-20%
COCc1cn2c(=O)n(C)cc(-c3ccnc(OC)c3)c2n1,3%[39.2 µM]
CCN1C[C@]2(COC(=O)c3ccccc3N3C(=O)C[C@H](C)C3=O)CC[C@H](OC)[C@@]34[C@@H]5C[C@H]6[C@H](OC)[C@@H]5[C@](O)(C[C@@H]6OC)[C@](O)([C@@H](OC)[C@H]23)[C@@H]14,29%
CCOc1ccc(CCNc2nc3c(-c4ccc(C)cc4)nnn3c3ccccc23)cc1OCC,-20%

# As entered above:
# CCCCNc1oc(-c2ccc(COc3ccccc3C)o2)nc1C#N in nsP2pro primary: -29%
# CCOc1ccc(CCNc2nc3c(-c4ccc(C)cc4)nnn3c3ccccc23)cc1OCC in nsP2pro primary: -20%

# (cont.)
SMILES,nsP2pro primary
CNc1oc(-c2ccc(Cl)c(Cl)c2)nc1C#N,-7%
Cc1cn2c(=O)c(S(=O)(=O)Nc3ccc(N4CCOCC4)cc3)c(C)nc2s1,-25%
CCOC(=O)c1sc(NC(=O)[C@H](C(C)C)n2c(=O)[nH]c3ccccc3c2=O)nc1C,-4%
CCC(C)C(NC(=O)C(Cc1ccc(O)cc1)NC(=O)C(NC(=O)C(CCCN=C(N)N)NC(=O)C(N)CC(=O)O)C(C)C)C(=O)NC(Cc1cnc[nH]1)C(=O)N1CCCC1C(=O)NC(Cc1ccccc1)C(=O)O (configuration not stated),10%
CN(C)c1ccc(-c2cc(O)c3ncccc3c2)cc1,i
N=C(N)c1ccc(OCCCCCOc2ccc(C(=N)N)cc2)cc1,15%
O=C(NCC(O)CO)c1ccc(OC2CCN(CCc3ccccc3)CC2)cc1 (configuration not stated),2%
COc1cccc(C(=O)Nc2ccc(-c3nc4ccccc4[nH]3)cc2)c1,-5%
Cc1ccc2nc3sc(C(=O)N4CCCCC4)cc3cc2c1,-3%
COc1ccc(-n2ncc(C(=O)NCCc3ccsc3)c2C2CCN(C(=O)OC(C)(C)C)CC2)cc1,-6%
CC(=O)Nc1ccc2c(c1)S(=O)(=O)N=C(CC(C)C)N2c1ccccc1,1%
COCC1CN(Cc2ccc(OC(F)(F)F)cc2)CC12CCNCC2 (configuration not stated),36%[activator]
O=C([C@H](Cc1ccc(O[S+](=O)([O-])c2cccc3cnccc23)cc1)N[S+](=O)([O-])c1cccc2cnccc12)N1CCN(Cc2ccccc2)CC1,4%
N#Cc1ccccc1NC(=O)C(=O)NCCc1csc(-c2ccc(C(F)(F)F)cc2)n1,-19%
CCOC(=O)Cc1ccc(NC(=O)N(Cc2ccc(CC)cc2)Cc2cn[nH]c2-c2ccc(OC)cc2)cc1,3%
C=C1C(=O)OC2C1CCC1(C)C(O)CCC(=C)C21 (configuration not stated),62%
O=C(Nc1ccc(Cl)cc1)c1cc(S(=O)(=O)N2CCc3ccccc32)ccc1F,2%
S=c1[nH]c2ccccc2s1,1%
Cc1ccc(CN2CCCC(C(=O)N3CCN(c4ccccn4)CC3)CCNC(=O)CC2)s1 (configuration not stated),-7%
C=C(C)C(=O)OC1C(OC(C)=O)/C(C=O)=C\CC/C(CO)=C/C2OC(=O)C(=C)C21 (configuration not stated),1.4µM*
Cn1cc(-c2cnc(Nc3ccc(F)cc3)c3c2CCO3)cn1,-5%[39.2 µM]
O=C1c2ccccc2C(=O)N1c1noc2ccccc12,i
O=C(c1cc(-c2ccco2)[nH]n1)N1CCC(n2cnc3ccccc32)C1 (configuration not stated),0.71µM*
COc1ccc(-c2nc(Cn3c(SCc4ccccc4F)nc4cccnc43)c(C)o2)cc1,41%[activator]
NC(=O)C1CCN(c2ncc(-c3cccc(F)c3)s2)CC1,2%
O=C(C1CCCN1C(=O)c1ccccc1)N1CCC(c2ccccc2)CC1 (configuration not stated),i
O=C(NC1Cc2ccccc2N(C[C@@H](O)CO)C1=O)c1cc2cc(Cl)sc2[nH]1 (some centres not stated),-11%
NC(=O)C1CCN(c2nccc(-c3ccc4c(c3)OCCCO4)n2)CC1,-2%
CC(C)n1cnc2c(Nc3cccc(Cl)c3)nc(NCCO)nc21,0%
CCc1ccccc1N(C)S(=O)(=O)c1ccc2[nH]cc(C(=O)NCCOC)c(=O)c2c1,-10%

# Some of these compounds in order of molecular weight, largest number first.
SMILES,nsP2pro primary
CCOC(=O)Cc1ccc(NC(=O)N(Cc2ccc(CC)cc2)Cc2cn[nH]c2-c2ccc(OC)cc2)cc1,3%
Cc1ccc(CN2CCCC(C(=O)N3CCN(c4ccccn4)CC3)CCNC(=O)CC2)s1 (configuration not stated),-7%
COc1ccc(-c2nc(Cn3c(SCc4ccccc4F)nc4cccnc43)c(C)o2)cc1,41%[activator]
O=C(Nc1ccc(Cl)cc1)c1cc(S(=O)(=O)N2CCc3ccccc32)ccc1F,2%
C=C(C)C(=O)OC1C(OC(C)=O)/C(C=O)=C\CC/C(CO)=C/C2OC(=O)C(=C)C21 (configuration not stated),1.4µM*
O=C(C1CCCN1C(=O)c1ccccc1)N1CCC(c2ccccc2)CC1 (configuration not stated),i
NC(=O)C1CCN(c2nccc(-c3ccc4c(c3)OCCCO4)n2)CC1,-2%
O=C(c1cc(-c2ccco2)[nH]n1)N1CCC(n2cnc3ccccc32)C1 (configuration not stated),0.71µM*
Cn1cc(-c2cnc(Nc3ccc(F)cc3)c3c2CCO3)cn1,-5%[39.2 µM]
NC(=O)C1CCN(c2ncc(-c3cccc(F)c3)s2)CC1,2%
O=C1c2ccccc2C(=O)N1c1noc2ccccc12,i
C=C1C(=O)OC2C1CCC1(C)C(O)CCC(=C)C21 (configuration not stated),62%
S=c1[nH]c2ccccc2s1,1%

# (list continues)
SMILES,nsP2pro primary
COc1ccc(CN2C(=O)c3ccccc3NC2c2ccc(OC)c(COc3ccc(NC(C)=O)cc3)c2)cc1 (configuration not stated),-9%
OC[C@H]1O[C@@H](OC[C@H]2O[C@@H](OC/C=C/c3ccccc3)[C@H](O)[C@@H](O)[C@@H]2O)[C@@H](O)[C@@H]1O,47%[activator][10 µM]
COC1CC(O[C@H]2CC[C@@]3(C)C(=CCC4C3C(O)[C@@H](O)[C@]3(C)[C@@H](C(C)=O)CC[C@]43O)C2)OC(C)C1OC1CC(OC)C(OC2OC(C)C(O)C(O)C2O)C(C)O1 (some centres not stated),-10%[5.1 µM]
COc1ccc(O[C@@H]2O[C@H](CO)[C@@H](O)[C@H](O)[C@H]2O)cc1OC,2%
COc1ccc(OC)c(-c2nnc(NC(=O)Nc3ccc4ccccc4c3)s2)c1,4%
Cc1ccc2c(CNC3CCCCC3)c(C(=O)O)n(Cc3ccc(F)cc3)c2c1,-19%
COc1ccc(C2c3c(N)nc(CCCc4ccccc4)nc3Oc3ccc4ccccc4c32)cc1OC (configuration not stated),i
O=C(O)c1ccccc1Nc1cc(Cl)ccc1C(=O)O,-17%[10 µM]
CCOC(=O)C1=C(CN(C)Cc2ccccc2)NC(=O)NC1c1ccc(OC(C)C)cc1 (configuration not stated),-20%
CC(CC(C(N)=O)(c1ccccc1)c1ccccc1)N(C)C (configuration not stated),-7%
CCC(C)N1Cc2cc(NC(=O)c3ccc([N+](=O)[O-])cc3)ccc2OCC1=O (configuration not stated),-6%
CC(=O)Nc1nonc1-c1nnc(SCC(=O)Nc2ccc(F)cc2F)n1-c1ccccc1,-6%
NC(=O)C1CCN(c2nc(-c3cccs3)cs2)CC1,i
O=S(=O)(O)c1cc(O)ccc1O,-20%
CCOC(=O)C1CCCN(C(=O)Cn2ncc3c(C)n(Cc4ccccc4Cl)c(C)c3c2=O)C1 (configuration not stated),-15%
CCn1cc(C(=O)NCCc2ccc(OC)c(OC)c2)c(=O)c2cc(S(=O)(=O)N(C)C3CCCCC3)ccc21,-18%
